Ecoli rRNA inh: selective bacterial rRNA inhibition in E. coli; E. coli WT GFP vs humanized-ribosome RFP mutants, fluorescence, 24 h; active compounds read low; DMSO median 0, no signal -100; AID 720706; GFP signal change (wild-type ribosome), % (no concentration beside the values); 1.6% of 350,000 active;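 active means significant combined selectivity score with lowered wild-type GFP, culture density cut under 30%, mutant RFP and density less affected; inactive means any of these conditions unmet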; further: one replicate is shown; some compounds called inactive have numbers as strong as hits
Ecoli rRNA inh OD600: further read-out of Ecoli rRNA inh, marked with its call; OD600 change, %; measured here: OD600 growth;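 optical density of the mix in the first replicate; 0 = DMSO median and -100 = no signal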
Ecoli rRNA inh RFP: second read-out of Ecoli rRNA inh, no call of its own (marks repeat the call); RFP signal change, %; measured here: RFP humanized mutant strains;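 first replicate; 0 = DMSO median and -100 = no signal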
* hit, by the source's call; & = joins results of further samples.

Each structure is followed by: Ecoli rRNA inh	Ecoli rRNA inh OD600	Ecoli rRNA inh RFP
O=C(Nc1cccc(F)c1)N[C@H]1CC[C@H](CCn2cc(Cc3ccccc3)nn2)O[C@@H]1CO
  -3	-4	4.0
C[C@H]1CN(C)C(=O)Cc2cc(N(C)C)ccc2O[C@@H]1CN(C)C(=O)OC(C)(C)C
  -1	-1	-0.1
COc1ccc2c3c(n(C)c2c1)[C@H](CO)N(C(=O)Nc1ccc(F)cc1)CC31CN(C(=O)c2ccccc2F)C1
  4	-14	11
COC(=O)C1(C(=O)OC)C[C@H](c2ccc(OC)cc2)N(Cc2ccccc2OC)[C@@H]1c1cccs1
  11&11	14&16	-2.0&-2.4
C[C@H](CO)N1C[C@H](C)[C@H](CN(C)Cc2ccc(-c3ccccc3)cc2)Oc2ccc(NC(=O)Nc3ccc(C(F)(F)F)cc3)cc2CC1=O
  2	2	-1.4
N#Cc1cccc(-c2ccc(C3[C@@H]4CN(S(=O)(=O)c5ccc(F)cc5)C[C@H]3N4)cc2)c1 (stereo partly specified)
  1&-35	12&-70	-2.6&-0.8
C[C@H](CO)N1C[C@H](C)[C@H](CN(C)S(=O)(=O)c2ccc(Cl)cc2)Oc2ccc(NC(=O)CCCN(C)C)cc2CC1=O
  4	4	-1.2
COCC(=O)N1CCCCN2[C@@H](CO)[C@H](c3ccc(-c4cccc(C)c4)cc3)[C@@H]2C1
  2	8	-0.9
C[C@@H]1CN([C@H](C)CO)C(=O)c2cc(C3=CCCC3)cnc2O[C@@H]1CN(C)C
  2	14	-0.3
N#Cc1ccc(-c2ccc([C@@H]3[C@@H]4CN(Cc5cocn5)C[C@H]3N4)cc2)cc1
  -1	2	4.3
C[C@@H]1CN([C@@H](C)CO)C(=O)c2cc(NC(=O)c3ccncc3)ccc2O[C@@H]1CN(C)Cc1ccccc1
  1	6	0.5
CCS(=O)(=O)N1CCC2(CC1)CN(Cc1cc(F)ccc1F)[C@H](CO)c1c2c2ccc(OC)cc2n1C
  4	-12	-2.0
C[C@@H]1CN([C@@H](C)CO)C(=O)Cc2cc(NS(=O)(=O)c3ccc(F)cc3)ccc2O[C@H]1CN(C)C(=O)Nc1cccc2ccccc12
  -2	-5	1.7
CCCC(=O)Nc1ccc2c(c1)C(=O)N(C)[C@@H]1CC[C@H](CC(=O)NCCOC)O[C@H]1CO2
  3	0	0.3
CCOC(=O)C1=CCN(S(=O)(=O)c2ccccc2)C1c1ccccc1 (stereo unspecified)
  -7	-16	2.2
Cc1ccc(S(=O)(=O)N(C)C[C@H]2Oc3ccc(NS(=O)(=O)c4c(C)noc4C)cc3CC(=O)N([C@@H](C)CO)C[C@@H]2C)cc1
  -1	2	0.9
C[C@H](CO)N1C[C@H](C)[C@H](CN(C)C(=O)C2CCC2)Oc2cc(-c3cccnc3)ccc2S1(=O)=O
  1	4	-4.2
Cc1ccc(S(=O)(=O)NCC[C@H]2CC[C@@H](NC(=O)c3cccnc3)[C@@H](CO)O2)cc1
  3	6	-1.0
Cc1noc(C)c1NC(=O)N(C)C[C@@H]1Oc2ncc(C#CC3CCCC3)cc2C(=O)N([C@H](C)CO)C[C@H]1C
  1	5	1.6
Cc1noc(C)c1NC(=O)Nc1ccc2c(c1)C(=O)N([C@@H](C)CO)C[C@H](C)[C@@H](CN(C)S(=O)(=O)c1cn(C)cn1)OCCCC[C@H](C)O2
  1	-1	-2.2
CCC(=O)N1[C@H](CO)[C@H](c2ccc(-c3ccncc3)cc2)[C@@H]1CN(C)C(C)=O
  0	4	-2.4
COc1ccc(CN(C)C[C@@H]2OCCCC[C@@H](C)Oc3ccc(NC(=O)Cc4ccccc4)cc3C(=O)N([C@H](C)CO)C[C@H]2C)cc1
  2	-1	-0.8
CC[C@@H]1C/C=C\C[C@H](C(C)C)NC(=O)CCC(=O)N1
  5	9	3.8
COCC#Cc1ccc([C@H]2[C@H](CO)N3CCCCN(Cc4cccnc4)C[C@@H]23)cc1
  -3	11	-5.1
O=C1CNC[C@H]2[C@H](c3ccc(C4=CCCC4)cc3)[C@H](CO)N12
  6	7	1.8
CCCNC(=O)N1CC2(CN(Cc3cccc(OC)c3)C2)c2c(n(C)c3cc(OC)ccc23)[C@H]1CO
  -2	-16	7.5
Cc1ccc([C@H]2C[C@H](n3cc(C4CC4)nn3)[C@@H](O)CN2C(=O)C2CCCCC2)cc1
  1	0	0.2
C[C@H]1CN([C@@H](C)CO)C(=O)c2cc(NS(C)(=O)=O)ccc2O[C@@H]1CN(C)Cc1ccc(C(=O)O)cc1
  2	10	3.7
COc1ccc(S(=O)(=O)Nc2ccc3c(c2)C(=O)N([C@H](C)CO)C[C@@H](C)[C@@H](CN(C)Cc2ccncc2)OCCCC[C@@H](C)O3)cc1
  -1	-4	2.1
C[C@@H](NC(=O)[C@@H]1[C@@H](CO)[C@@H]2Cn3c(cccc3=O)[C@H]1N2CCC(F)(F)F)c1ccccc1
  0	4	-4.0

Continued.
Each structure is followed by: Ecoli rRNA inh	Ecoli rRNA inh OD600	Ecoli rRNA inh RFP
CCCNC(=O)[C@H]1[C@H](CO)[C@H]2Cn3c(ccc(-c4cccc(OC)c4)c3=O)[C@@H]1N2CC
  -1	2	-3.4
O=C(C[C@@H]1C[C@@H]2c3cc(NC(=O)c4cccnc4)ccc3O[C@@H]2[C@H](CO)O1)NC1CCCCC1
  -3	1	-5.0
C[C@@H]1CN([C@H](C)CO)C(=O)c2cc(NC(=O)Cc3cn(C)c4ccccc34)ccc2O[C@@H]1CN(C)S(=O)(=O)c1ccccc1
  -4	0	0.2
C[C@H]1CN([C@@H](C)CO)C(=O)c2cc(C#CCN(C)C)cnc2O[C@H]1CN(C)C(=O)NC1CCCC1
  0	4	-3.2
CC1(C(=O)Nc2ccc3c(c2)OCCO3)CN(S(C)(=O)=O)CC(=O)N1Cc1cccc(F)c1 (stereo unspecified)
  -1	-8	5.4
C[C@@H]1CN([C@@H](C)CO)C(=O)c2cc(NC(=O)Nc3cccc4ccccc34)ccc2O[C@@H](C)CCCCO[C@@H]1CN(C)C(=O)C1CCCCC1
  1	4	1.1
COCC(=O)Nc1ccc2c(c1)C(=O)N(C)C[C@@H](OC)[C@@H](C)CN(Cc1ccccn1)[C@@H](C)CO2
  2	2	-2.1
COC(=O)[C@]1(Cc2ccccc2)NC=C(C(=O)c2ccccc2)[C@@H]1c1cccc(OC)c1
  -7	-6	2.2
C[C@H](CO)N1C[C@H](C)[C@H](CN(C)S(=O)(=O)c2cccs2)OCCCC[C@H](C)Oc2ccc(NS(=O)(=O)c3ccc(Cl)cc3)cc2C1=O
  2	5	-1.0
C[C@@H]1CCCCO[C@H](CN(C)C(=O)Nc2ccc(C(F)(F)F)cc2)[C@H](C)CN([C@H](C)CO)C(=O)c2cc(NS(=O)(=O)c3cn(C)cn3)ccc2O1
  -6	-6	-1.3
O=C(Nc1ccc(F)c(Cl)c1)C1Cc2c(-c3ccc(Cl)cc3)ccnc2O1 (stereo unspecified)
  -11	-16	20
CC(=O)Nc1cccc(NC(=O)c2cccc(Cl)c2)c1
  -2	1	-1.7
O=C(NC1CCCCC1)N1CC(=O)N2[C@H](C1)[C@@H](c1ccc(/C=C/c3ccccc3)cc1)[C@@H]2CO
  -7	-40	21
C[C@@H]1CN([C@@H](C)CO)C(=O)Cc2cc(NC(=O)Nc3ccc(F)cc3)ccc2O[C@H]1CN(C)Cc1ccc(C(=O)O)cc1
  6	10	-0.2
C[C@H](CO)N1C[C@H](C)[C@H](CN(C)C(=O)Nc2ccc3c(c2)OCO3)Oc2c(NC(=O)Nc3ccc(F)cc3)cccc2C1=O
  -7	4	-0.7
C[C@H]1CCCCO[C@H](CN(C)C(=O)Nc2ccccc2)[C@@H](C)CN([C@@H](C)CO)C(=O)c2cc(NS(=O)(=O)c3ccc(F)cc3)ccc2O1
  -5	-9	1.9
CCC(=O)N1CC[C@@H]2[C@H]1c1cc(-c3ccccc3F)ccc1N(C)[C@H]2CO
  -3	-10	0.6
COc1ccccc1S(=O)(=O)N(C)C[C@H]1Oc2cc(C#CCC(C)C)ccc2S(=O)(=O)N([C@@H](C)CO)C[C@H]1C
  1	7	-3.0
CC(=O)N1CCCCN2[C@H](C1)[C@@H](c1ccc(-c3ccc(F)cc3)cc1)[C@@H]2CO
  1	-3	-2.7
CC(C)CC#Cc1ccc([C@@H]2[C@H](CO)N3C(=O)CN(C(=O)c4cnccn4)C[C@@H]23)cc1
  -8	14	-3.0
C[C@@H]1CCCCO[C@H](CN(C)Cc2ccc(C(F)(F)F)cc2)[C@H](C)CN([C@H](C)CO)C(=O)c2cc(NC(=O)NC3CCCCC3)ccc2O1
  -1	2	1.8
C[C@@H]1CN([C@@H](C)CO)C(=O)Cc2cc(NC(=O)Nc3cccc4ccccc34)ccc2O[C@@H]1CN(C)Cc1ccc(C(=O)O)cc1
  -5	-3	1.0
O=C(Nc1ccccc1F)N[C@H]1CC[C@H](CCNC(=O)C2CC2)O[C@@H]1CO
  3	6	0.2
C[C@@H]1CN([C@@H](C)CO)S(=O)(=O)c2ccc(/C=C/c3ccccc3)cc2O[C@H]1CN(C)C(=O)CN1CCOCC1
  -4	-6	1.4
CCCN(C)C[C@@H]1Oc2cc(C#Cc3ccccc3)ccc2S(=O)(=O)N([C@@H](C)CO)C[C@@H]1C
  1	-4	4.3
C[C@H]1CCCCO[C@H](CN(C)S(=O)(=O)c2cccs2)[C@@H](C)CN([C@@H](C)CO)C(=O)c2cc(NS(=O)(=O)c3ccc(F)cc3)ccc2O1
  1	0	13
C[C@@H]1CCCCO[C@H](CN(C)Cc2ccccc2)[C@@H](C)CN([C@@H](C)CO)C(=O)c2cc(NC(=O)C3CCCCC3)ccc2O1
  4	-6	0.1
O=C(C1CCCCC1)N1C[C@@H]2[C@H](c3ccccc31)[C@@H](CO)N2C(=O)Cc1ccccn1
  2	10	-1.9
O=C(Nc1ccc2ccccc2c1)c1ccccc1Cl
  -1	-35	-5.1
Cc1ccc(-c2cnc3c(c2)C(=O)N([C@H](C)CO)C[C@H](C)[C@H](CN(C)C)O3)cc1
  0	7	-2.0

(further entries)
Each structure is followed by: Ecoli rRNA inh	Ecoli rRNA inh OD600	Ecoli rRNA inh RFP
C/C=C/c1ccc([C@H]2[C@@H](CO)N3C(=O)CN(C(=O)Nc4cc(F)ccc4F)C[C@@H]23)cc1
  -1	2	9.8
COc1cccc(C(O)c2nc(/C=C/c3ccc(C(F)(F)F)cc3)cs2)c1 (stereo unspecified)
  3	14	-1.7
CO[C@H]1CN(C)C(=O)c2cc(NS(C)(=O)=O)ccc2OC[C@@H](C)N(Cc2ccccc2)C[C@@H]1C
  -4	-10	3.5
COc1ccc([C@@H]2CC=CC[C@H](C)Oc3ccccc3C(=O)N(C)[C@@H](C(C)C)C(=O)N2)c(OC)c1 (mixture of isomers)
  -10	-14	-2.0
COc1cccc(S(=O)(=O)N[C@@H]2C=C[C@H](CC(=O)NCc3ccc(Cl)cc3)O[C@@H]2CO)c1
  -9	-5	0.2
O=C(C[C@@H]1CC[C@H]2[C@@H](COC[C@H](O)CN2Cc2ccc(F)cc2)O1)NCc1ccccc1Cl
  2	14	0.7
COc1ccc(C#Cc2cccc(-c3nc(C(=O)NCc4ccc5c(c4)OCO5)cc4c3[C@@H](CCO)N(S(=O)C(C)(C)C)C4)c2)cc1OC (stereo partly specified)
  -1	0	-0.5
Cc1ccc(CN2CC(N3CCN(C)CC3)CS2(=O)=O)cc1 (stereo unspecified)
  1	6	-5.4
COCC#Cc1ccc([C@H]2[C@@H](CO)N3CCCCN(S(=O)(=O)c4ccc(OC)cc4)C[C@H]23)cc1
  -2	-4	6.8
C[C@H](CO)N1C[C@H](C)[C@H](CN(C)Cc2cncnc2)Oc2cc(-c3ccccc3F)ccc2S1(=O)=O
  -7	-14	2.2
CCn1c(C)cc(C(=O)COC(=O)CNC(=O)c2ccco2)c1C
  1	-18	9.1
C[C@@H]1CN([C@H](C)CO)S(=O)(=O)c2ccc(C#C[C@@H](C)O)cc2O[C@@H]1CN(C)Cc1ccncc1
  -1	0	-1.4
Cc1ccccc1S(=O)(=O)N1CC[C@@H]2[C@H](CO)N(C)c3ccc(C#Cc4ccc(F)cc4)cc3[C@@H]21
  0	4	2.2
O=C(CN1CCOCC1)NCC[C@@H]1CC[C@@H](NC(=O)Nc2ccc(C(F)(F)F)cc2)[C@H](CO)O1
  0	10	-2.4
CO[C@H]1CN(C)C(=O)c2ccc(NC(C)=O)cc2OC[C@@H](C)N(Cc2nccs2)C[C@H]1C
  2	7	-0.4

Molecules shown so far with a CF3 group (6):
Each structure is followed by: Ecoli rRNA inh	Ecoli rRNA inh OD600	Ecoli rRNA inh RFP
C[C@H](CO)N1C[C@H](C)[C@H](CN(C)Cc2ccc(-c3ccccc3)cc2)Oc2ccc(NC(=O)Nc3ccc(C(F)(F)F)cc3)cc2CC1=O
  2	2	-1.4
C[C@@H](NC(=O)[C@@H]1[C@@H](CO)[C@@H]2Cn3c(cccc3=O)[C@H]1N2CCC(F)(F)F)c1ccccc1
  0	4	-4.0
C[C@@H]1CCCCO[C@H](CN(C)C(=O)Nc2ccc(C(F)(F)F)cc2)[C@H](C)CN([C@H](C)CO)C(=O)c2cc(NS(=O)(=O)c3cn(C)cn3)ccc2O1
  -6	-6	-1.3
C[C@@H]1CCCCO[C@H](CN(C)Cc2ccc(C(F)(F)F)cc2)[C@H](C)CN([C@H](C)CO)C(=O)c2cc(NC(=O)NC3CCCCC3)ccc2O1
  -1	2	1.8
COc1cccc(C(O)c2nc(/C=C/c3ccc(C(F)(F)F)cc3)cs2)c1 (stereo unspecified)
  3	14	-1.7
O=C(CN1CCOCC1)NCC[C@@H]1CC[C@@H](NC(=O)Nc2ccc(C(F)(F)F)cc2)[C@H](CO)O1
  0	10	-2.4

Compound activity deposited in PubChem BioAssay by Broad Institute.

Only part of the results is shown. The share of hits here may be higher or lower than overall.
